gsp antag: antagonizes gsp, the McCune-Albright syndrome mutation; gsp-mutant cells, cAMP HTRF, 30 min; control for the full effect not named in the record; Potency, µM (doses to about 76.9 µM), for the others: top-dose activity change, negative = inhibition, usual class: inhibitors; 340,000 tested, 0.4% active; active = falling curve of any shape with a large fitted effect; inconclusive = falling curve, mostly with a smaller effect; inactive = flat or rising curve; cell line not stated here;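 note: intracellular cAMP measured with PDE inhibitor Ro 20-1724 present during compound exposure; potency is the fitted concentration of half-maximal effect; % is set by controls: 0 for no effect and ±100 for the full control effect; nearly all actives have a fitted effect of over 65% in size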
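HTRF cAMP measurement after 30 min RT detection following 30 min, 37C compound treatment alongside […] (added as 300 uM solution) in G418-selected cells seeded at 2000/well and grown 16–24 h.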
ClpP mod: qHTS Assay for Activators of ClpP | ATP-dependent Clp protease proteolytic subunit (Bacillus subtilis (strain 168)), P80244 | purified B. subtilis ClpP, FRET peptide cleavage, 20 min | Potency, µM (series often up to 57.5 µM), for the others: at the highest dose activity change, negative = active | 340,000 tested, 1.9% active | AID 651965, 2013; active = well fitted falling curve with a large enough effect; inconclusive = small, poorly fitted or top-dose-only effect; inactive = no such curve, though single readings can be large or run the other way; note: potency is the fitted concentration of half-maximal effect; the source files actives as falling curves though it sought activators and does not explain the sign; nearly all actives have a fitted effect of over 65% in size; many hits overshoot -100%
Target sequence (P80244 whole entry, looked up): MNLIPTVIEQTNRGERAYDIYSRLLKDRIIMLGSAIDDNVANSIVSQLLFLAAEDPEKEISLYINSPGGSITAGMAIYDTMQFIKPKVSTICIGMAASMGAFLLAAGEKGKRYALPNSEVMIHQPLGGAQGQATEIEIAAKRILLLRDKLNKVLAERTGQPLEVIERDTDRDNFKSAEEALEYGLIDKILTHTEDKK
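Buffer: 100 mM Tris/HCl pH8, 100 mM KCl, 0.05% low protease BSA, 2.5% glycerol, 0.01% Tween-20. ClpP 10 microg/mL final; 20 min RT; delta FRET normalized to ADEP and DMSO controls.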
TRPV1 PAM: human TRPV1 potentiation. TRPV1-expressing cells, Fluo-8 calcium influx, capsaicin EC20 potentiation; host cell line not named in the record; control for the full effect not named in the record. potentiation, % at 8.33 µM. 320,000 tested, 0.02% active; active means potentiation above 80%; inconclusive means 30% to 80%; inactive means below 30%; note: 0% is about no effect
Target sequence (Q8NER1 whole entry, looked up): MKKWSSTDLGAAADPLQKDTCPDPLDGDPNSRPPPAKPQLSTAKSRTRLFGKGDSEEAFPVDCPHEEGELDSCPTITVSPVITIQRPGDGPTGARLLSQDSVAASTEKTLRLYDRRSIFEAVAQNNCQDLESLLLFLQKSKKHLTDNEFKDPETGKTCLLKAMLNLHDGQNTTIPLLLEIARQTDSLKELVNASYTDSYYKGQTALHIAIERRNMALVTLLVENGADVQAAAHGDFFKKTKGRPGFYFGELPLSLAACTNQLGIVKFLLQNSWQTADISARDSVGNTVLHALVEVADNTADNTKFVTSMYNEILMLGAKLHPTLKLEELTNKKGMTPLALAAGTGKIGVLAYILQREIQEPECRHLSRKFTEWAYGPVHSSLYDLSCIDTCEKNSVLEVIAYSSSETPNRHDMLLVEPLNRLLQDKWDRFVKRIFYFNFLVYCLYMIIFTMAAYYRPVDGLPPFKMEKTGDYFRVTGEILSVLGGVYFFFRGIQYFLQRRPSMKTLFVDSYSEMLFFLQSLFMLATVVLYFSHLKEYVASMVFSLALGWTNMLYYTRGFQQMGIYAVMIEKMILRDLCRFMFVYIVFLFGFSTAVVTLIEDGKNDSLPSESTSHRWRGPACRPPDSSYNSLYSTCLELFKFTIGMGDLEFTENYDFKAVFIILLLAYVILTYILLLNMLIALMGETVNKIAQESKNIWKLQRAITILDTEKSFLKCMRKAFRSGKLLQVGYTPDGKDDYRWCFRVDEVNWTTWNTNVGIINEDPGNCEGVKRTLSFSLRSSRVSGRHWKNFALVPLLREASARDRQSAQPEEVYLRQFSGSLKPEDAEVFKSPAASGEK
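Fluo-8 calcium influx in TRPV1-expressing cells, kinetic read (ex 480/em 520 nm). Compound added and read 3 min for agonist activity, followed by capsaicin at EC20 final and 2 min further read for enhancement.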
TRPML1 blocker: blocks the human TRPML1 channel; 390,000 tested, 0.02% active; activity change, negative = inhibition, % (test concentration not listed); TRPML1-inducible cells, Ca2+ dye fluorescence, FDSS; hits give low values; inhibition of EC80 agonist-evoked calcium signal; Q9GZU1; in the data active means activity change below about -50%; inconclusive means about -30% to -50%; inactive means above about -30%;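 note: stimulus is agonist 54-4 at its EC80 concentration; % is set by controls: 0 for no effect and ±100 for the full control effect; compound concentration not given in the record; the text of the record puts the active cut at -80%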
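TRPML1-DL cells, Tet-induced overnight (~16 h, 37 °C) at 1,500 cells/well, were loaded with Ca8 no-wash dye plus quencher for 45-90 min at room temperature. Compounds were pinned during FDSS kinetic reading; agonist 54-4 at EC80 (4 uM final) then added.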
gsp agonist: activates gsp, the McCune-Albright syndrome mutation. Potency, µM (highest dose often 76.9 µM), inactives show at the highest dose activation (cAMP increase), hits mostly activators. gsp mutant cells, cAMP HTRF, 30 min; control for the full effect not named in the record. 340,000 tested, 0.13% active; active = well fitted activation curve with a large enough effect; inconclusive = small, poorly fitted or top-dose-only effect, or another doubt; inactive = no such curve, though single readings can be large or run the other way; cell line not stated here;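 note: phosphodiesterase inhibitor Ro 20-1724 added with compounds to block cAMP breakdown; potency is the fitted concentration of half-maximal effect; nearly all actives have a fitted effect of over 60% in size; about a fifth of the inactives were tested at one dose only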
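Cells stably selected in G418 were plated at 2000/well, grown 16-24 hr, then given compounds in DMSO with the PDE inhibitor […] (300 uM solution added) for 30 min at 37C; cAMP was read by HTRF.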
Sfp inh: inhibitors of Bacillus subtilis Sfp phosphopantetheinyl transferase; Biochemical Sfp PPTase activity, qHTS; Potency, µM, for inactives: max response, negative = inhibition, actives largely listed as inhibitors; 310,000 tested, 3.5% active; active = well fitted inhibition curve with a large enough effect; inconclusive = small, poorly fitted or top-dose-only effect, or another doubt; inactive = no such curve, though single readings can be large or run the other way;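 note: the enzyme is Sfp with the accession as filed and its product quenches rhodamine fluorescence; potency is the fitted concentration of half-maximal effect; 0% = enzyme reaction without inhibitor and -100% = no enzyme wells; top concentration of the series not given in the record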
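Fluorescence-quenching assay: 15 nM Sfp-PPTase preincubated 15 min at room temperature with compound, then 5 uM rhodamine-CoA and 12.5 uM BHQ-2-labelled YbbR peptide added. Fluorescence (ex 525/em 598 nm) read at start and after 30 min; difference gives rate.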
Menin-MLL FL inh: menin-MLL binding inhibition, fluorescein peptide | Fluorescence polarization, fluorescein-MLL peptide displacement from menin | FP activity change, % at 61.4 µM | 290,000 tested, under 10 active | AID 1766; inconclusive = falling polarisation curve, or a change in total fluorescence; inactive = total fluorescence flat and polarisation flat or rising; no compound was filed as active; the % refers to the polarisation; negative = inhibition;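 note: % of control where 0% means no effect; inhibitors lower the polarisation; unlabelled MLL peptide was the positive control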
* hit, by the source's call; ? = inconclusive; · = not tested or not shown; [ ] = another dose, or the depositor's remark.

molecule	Menin-MLL FL inh	gsp antag	Sfp inh	ClpP mod	TRPML1 blocker	TRPV1 PAM	gsp agonist
O=C(c1cccc(C(F)(F)F)c1)C1CCCN(C(=O)C2CCOCC2)C1 (configuration not stated)	·	6%	0%	-1.7%	5	-11	-22%
O=C(c1cc(COc2ccc3ncccc3c2)on1)N1CCCC1	·	-15%	9%	-14%	-2	-8	2%[15.4 µM]
COc1ccc(OCCCON2C(=O)c3ccccc3C2=O)cc1	4.0	?	14%	-6.8%	19	8	-2%
COc1cc(OC)c(NC(=O)C2CCCN2C(=O)OCc2ccccc2)cc1Cl (configuration not stated)	0.0	-4%	12%	-0.2%	7	-6	-23%
O=C(O)CSc1ncnc2nc[nH]c12	-0.5	12%	7%	-1.3%	12	-27	?
O=C(COC(=O)c1nc(Cl)ccc1Cl)Nc1ncc(Cl)cc1Cl	·	6%	·	0.6%	7	8	8%
CNC(=O)COC(=O)c1cc(NC(=O)c2ccco2)c(OC)c(OC)c1	1.7	4%	-5%	2.5%	-6	?	-12%
Brc1ccccc1OCCCCn1cnc2ccccc21	-7.2	-10%	4%	·	44	?	3%[15.4 µM]
CCCN(CCC)CCCNC(=S)Nc1ccc2nc(N3CCN(C)CC3)cc(C)c2c1	-4.2	1%	10%	4.4%	-3	2	-3%
CSc1ccc(/C=N/N2CCN(C)CC2)cc1	2.8	8%	3%	·	4	?	-10%
COc1ccc(NC(=O)CN(Cc2ccco2)Cc2ccco2)cc1S(=O)(=O)N1CCCCC1	·	-27%	·	-1.6%	67	-16	29%
COc1ccc(S(=O)(=O)Nc2ccc3c(c2)OCCO3)cc1OC	2.0	-6%	13%	·	7	8	-20%
CN(C)c1ccc(/C=N/NC(=O)c2ccco2)cc1	8.9	?	16%	-1.4%	-1	-3	22%
COCCCNCC(O)COc1ccccc1F (configuration not stated)	1.0	16%	?	0.2%	-12	12	-9%[15.4 µM]
CC1(C)COC(/C=C/c2ccc([N+](=O)[O-])cc2)=N1	-0.2	-6%	1%	0.9%	0	3	11%
COc1cccc(CNc2ncnc3cc(OC)c(OC)cc23)c1	1.7	1%	9%	-4.0%	-3	4	28%
O=C(NN1CCOCC1)c1cc(-c2ccccc2)nc2ccccc12	2.5	8%	1%	-0.9%	2	4	-90%[inhibitor]
CN1CCN(NC(=O)c2ccc(Cl)c(S(=O)(=O)Nc3ccc(Cl)cc3)c2)CC1	1.1	2%	?	-3.9%	2	19	-4%
Cc1c(Br)c([N+](=O)[O-])nn1CC(=O)NC1CCCCCC1	-2.0	-16%	15%	0.8%	12	1	0%[15.4 µM]
COc1ccc(C(=O)Nc2ccc(C3=NNC(=O)CC3C)cc2NC(=O)c2ccc(OC)cc2)cc1 (configuration not stated)	-0.7	-13%	4%	·	-6	-3	25%
COc1ccc(-n2cnc(N)c2C(=O)c2cccc([N+](=O)[O-])c2)cc1	0.5	-7%	28%	1.0%	2	4	-55%[inhibitor]
COc1ccc(CNC(=O)Nc2cccs2)cc1OC	?	8%	25µM*	-1.3%	1	-2	?
N/C(=N\OC(=O)CCC1CCCCC1)c1cccc([N+](=O)[O-])c1	3.8	2%	1%	-0.7%	-7	-32	-28%
CN(C#N)c1nc(Cl)nc(Nc2cccc(Cl)c2)n1	0.3	?	0%	4.4%	12	11	1%
COCn1c(-c2ccc(OC)cc2)nc2ccccc21	0.5	-1%	-5%	?	-11	-14	-9%
Cc1nc2ccc(NC(=O)CCS(=O)(=O)c3ccccc3)cc2s1	-6.0	0%	-1%	-0.2%	-14	11	-1%
CCC(C)(C)NC(=O)C(c1ccncc1)N(Cc1ccc(C)cc1)C(=O)c1csnn1 (configuration not stated)	-3.4	1%	-6%	-5.3%	-4	1	?
O=C(/C=C/c1ccco1)Nc1nnc(-c2ccco2)s1	0.1	5%	6%	-16%	5	7	-84%[inhibitor]
COCCn1c(CN2CCN(c3ccccc3)CC2)nc2c1c(=O)n(C)c(=O)n2C	·	9%	·	-0.6%	-7	·	?
O=C(N/N=C/c1ccncc1)c1ccc(NC(=O)c2cccc(Cl)c2)cc1	2.0	-10%	-17%	·	-25	3	-1%
Cc1c(C(=O)OCC(=O)Nc2ccc(N3CCOCC3)cc2)oc2ccccc12	·	1%	·	3.5%	45	4	-45%[inhibitor]
O=C(NCc1nnnn1-c1ccc(F)cc1)C(=O)c1c[nH]c2ccccc12	·	·	·	3.2%	0	·	-42%[inhibitor]
NNC(=O)Nc1cccc(C(F)(F)F)c1	-2.1	7%	11%	-0.4%	6	-3	-10%
O=C(Cn1c(=O)n(CC(=O)NCc2ccccc2)c2ccccc21)NCc1ccccc1	-0.5	3%	?	-4.5%	0	11	-6%
C[C@H](NC(=O)C1CCN(S(=O)(=O)c2ccccc2)CC1)C(=O)NCc1ccncc1	·	·	·	1.0%	37	·	20%
Cc1cccc2[nH]c3c(N4CCN(C(=O)c5ccco5)CC4)ncnc3c12	-0.1	-3%	-1%	32µM*	-8	19	-13%
CC(=O)Nc1ccc(-c2cn3cc(C)ccc3n2)cc1	1.9	-4%	6%	?	-2	0	-13%
CCOc1cc(C2C(C(C)=O)=C(C)Nc3ncnn32)ccc1O (configuration not stated)	8.3	1%	6%	0.6%	4	12	-28%
Cc1cccc(C)c1NC(=O)NC1(C(=O)NCc2ccncc2)CCCCC1	1.9	-4%	31%[activator]	·	-8	6	-40%[inhibitor]
COc1ccc(S(=O)(=O)N2CCC(C(=O)NCc3ccncc3)CC2)cc1C	-0.7	2%	7%	·	?	-1	10%
COc1ccc(C(=O)NCc2nnc(SCC(=O)N3CCOCC3)o2)cc1OC	-2.6	17%	-2%	-2.9%	18	19	?
CCOC(=O)CNC(=O)CCc1nnc2ccc(N3CCC(C)CC3)nn12	2.3	0%	17%	0.5%	2	19	?
C[C@H]1COC(=O)[C@H](CC(=O)OC(C)(C)C)C/C=C\C[C@@H](CC(=O)N(CCO)Cc2ccccc2)C(=O)N1	·	9%	·	2.7%	-1	·	-32%
CCCc1cc(=O)oc2cc(OC(C)C(=O)NC3CC(C)(C)NC(C)(C)C3)ccc12 (configuration not stated)	-0.3	?	8%	4.6%	-4	1	-2%
CC(C)CC(NC(=O)C1CCC(C)CC1)C(=O)NCCN1CCOCC1 (configuration not stated)	-2.6	20%	16%	·	12	0	-1%[15.4 µM]
CCCn1c(C)cc(C(=O)COC(=O)c2ccc[nH]c2=O)c1C	3.6	-3%	-23%	-2.2%	-6	-19	-48%[inhibitor]
CSc1cccc(NC(=O)C2CCCN(S(C)(=O)=O)C2)c1 (configuration not stated)	·	·	·	-0.9%	-12	·	11%
CN(C)S(=O)(=O)c1cccc(C(=O)N(Cc2ccc(F)cc2)Cc2ccco2)c1	2.8	-2%	-23%	-1.8%	50	-7	-53%[inhibitor]
CCOC(=O)C1CCN(c2cc(=O)n(-c3ccc(OC)cc3)c(=O)[nH]2)CC1	2.8	1%	14%	-1.0%	8	12	-31%[inhibitor]
CCOC(=O)C1CCN(C(=O)CCCn2nc(C)c3c(C)n(-c4ccc(C)cc4)nc3c2=O)CC1	-1.8	?	5%	-6.7%	-12	3	?

(list continues)
molecule	Menin-MLL FL inh	gsp antag	Sfp inh	ClpP mod	TRPML1 blocker	TRPV1 PAM	gsp agonist
CCN(CC)CCNC(=O)c1cc2cc(Br)ccc2s1	0.4	-2%	0%	·	-27	?	4%[15.4 µM]
COc1ccc(C2CC(c3ccc(Br)cc3)=NN2C(=O)c2cccnc2)cc1 (configuration not stated)	-0.5	?	-30%	0.2%	12	3	?
C=CCOc1ccc(S(C)(=O)=O)cc1	-2.6	2%	26%	2.1%	-1	5	-23%
CCN=C1S/C(=C\c2cc(OCC)c(O)cc2Br)C(=O)N1CC	?	-13%	-3%	1.5%	22	2	3%
CCOC(=O)/C(N=Nc1ccc(F)cc1)=C(/O)c1ccc([N+](=O)[O-])cc1	-2.2	2%	-1%	-4.3%	29	-5	-9%[15.4 µM]
CCOc1cccc(CN2CCC(Oc3ccc(C(=O)N4CCCC4)cc3)CC2)c1O	·	·	·	-0.3%	-11	·	-8%
COc1ccc(/C(N)=N/OC(=O)C2CCC(=O)N2S(=O)(=O)c2ccc(C)cc2)cc1 (configuration not stated)	1.5	4%	-8%	-12%	7	10	0%
C[C@@H](NC(=O)c1[nH]cnc1C(=O)Nc1ccc(Cl)cc1)c1ccccc1	·	-4%	·	-9.5%	12	-4	-54%[inhibitor]
NC(=O)COC(=O)c1ccc(Oc2ccccc2)cc1	5.2	7%	14%	-0.2%	-2	-14	-9%
Cc1cc(C)c(C)c(C(=O)C(=O)c2ccccc2)c1	·	10%	·	-2.2%	6	·	10%
CCOC(=O)c1cc(CC)sc1NC(=O)C(c1ccccc1)c1ccccc1	-4.3	-7%	8%	-23%	10	-5	9%
OCCc1ccc(O)cc1	·	-3%	·	0.0%	16	-3	·
CCCOCC(O)CC(CC)C(=O)NNC(=S)Nc1ccccc1 (configuration not stated)	-4.3	3%	12%	·	-10	-8	3%
CC(C)C1C(=O)N(Cc2cn(CCC3OCCO3)nn2)CCS(=O)(=O)N1Cc1ccc(-c2ccc(Cl)c(Cl)c2)cc1 (configuration not stated)	·	·	·	-5.4%	13	·	?
O=C1CC(C(=O)N2CCN(Cc3ccccc3)CC2)CN1Cc1ccccc1 (configuration not stated)	·	9%	·	-1.7%	0	-25	-10%
CC1CC(C)(C)NCc2ccccc21 (configuration not stated)	1.1	4%	22%	-0.6%	-1	4	14%
N/C(=N\OC(=O)/C=C/c1ccc(Br)cc1)c1ccccn1	-1.0	7%	2%	1.6%	7	-28	-15%
CCOC(=O)C1CCCN(C(=O)CNC(=O)c2ccc(Br)o2)C1 (configuration not stated)	·	6%	·	-4.1%	9	·	-46%[inhibitor]
CN(C)/N=C/C=C1\CCC/C(=C/c2cccs2)C1=O	?	-8%	20%	0.8%	0	·	-4%
Cc1cccc(N2C(=O)C3C4CC(C(Br)C4Br)C3C2=O)n1 (configuration not stated)	1.1	26%	18%	-0.6%	10	16	28%

Compound activity deposited in PubChem by National Center for Advancing Translational Sciences (NCATS).
